KCNQ2 inh – KCNQ2 potassium channel inhibitors, primary screen, cell-based, CHO-K1, FluxOR thallium flux, B-score (AID 2156) | B-score at 10 µM | 20 min; hits give low values; only compounds with negative scores are shown here; some inactives read as strong as hits | 310,000 compounds, 1.1% hits;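 active means fluorescence ratio B-score at most minus 3 library SDs, with starting brightness B-score within 2 library SDs, cut at about -5.5 in these data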
Target sequence (O88943 whole entry, looked up): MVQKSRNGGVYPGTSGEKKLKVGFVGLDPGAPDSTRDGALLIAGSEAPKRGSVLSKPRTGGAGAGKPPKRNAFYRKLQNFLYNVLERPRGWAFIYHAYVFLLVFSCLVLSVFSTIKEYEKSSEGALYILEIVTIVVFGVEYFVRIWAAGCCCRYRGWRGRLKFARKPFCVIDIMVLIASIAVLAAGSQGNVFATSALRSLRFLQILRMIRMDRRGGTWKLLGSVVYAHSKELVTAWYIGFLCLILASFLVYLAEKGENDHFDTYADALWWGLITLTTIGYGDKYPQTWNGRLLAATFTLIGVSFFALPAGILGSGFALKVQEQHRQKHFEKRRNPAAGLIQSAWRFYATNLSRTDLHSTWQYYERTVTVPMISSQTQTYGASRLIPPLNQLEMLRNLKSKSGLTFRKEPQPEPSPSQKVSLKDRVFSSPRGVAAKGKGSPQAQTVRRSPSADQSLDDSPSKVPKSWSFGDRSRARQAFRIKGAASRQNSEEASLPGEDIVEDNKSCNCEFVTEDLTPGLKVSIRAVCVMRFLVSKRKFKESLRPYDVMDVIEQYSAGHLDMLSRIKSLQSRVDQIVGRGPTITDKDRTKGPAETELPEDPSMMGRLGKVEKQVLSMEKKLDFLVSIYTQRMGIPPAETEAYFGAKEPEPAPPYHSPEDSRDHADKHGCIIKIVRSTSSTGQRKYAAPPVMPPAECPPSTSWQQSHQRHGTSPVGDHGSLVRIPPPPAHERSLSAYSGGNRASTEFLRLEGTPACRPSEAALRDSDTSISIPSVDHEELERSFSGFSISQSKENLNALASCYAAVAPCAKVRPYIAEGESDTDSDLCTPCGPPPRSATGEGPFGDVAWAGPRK
KCNQ2 inh baseline – further read-out of KCNQ2 inh, marked with its call; B-score; measured here: initial fluorescence intensity artifact check;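 brightness before thallium and not channel activity; 0 = typical well and far values either way flag optical interference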
The depositor's hits bear a star. This is a subset; count on the stated rates, not on these rows.

`Cc1[nH]c2ccc(F)cc2c1CCN(Cc1ccncc1)C(=S)Nc1ccccc1` gave KCNQ2 inh inactive and KCNQ2 inh baseline 0.92.
Screening O=C(c1cc2nc(-c3ccco3)cc(C(F)(F)F)n2n1)N1CCN(c2ccccc2)CC1 returned KCNQ2 inh inactive and KCNQ2 inh baseline -1.5.
`Cc1ccc(C)c(S(=O)(=O)N2CCCC2CNC(=O)C(=O)NCCN2CCOCC2)c1` (stereo not given) gave KCNQ2 inh inactive and KCNQ2 inh baseline -2.4.
Screening CC1Cc2ccccc2N1C(=O)CCn1cccn1 (stereo not given) returned KCNQ2 inh inactive and KCNQ2 inh baseline 1.8.
COc1ccccc1CN(C)C(C)C(=O)Nc1cccc(C(C)=O)c1 (stereo not given) was read as KCNQ2 inh inactive and KCNQ2 inh baseline -1.7.
Screening O=C(Nc1ccn(Cc2ccccc2F)n1)c1ccc(COc2ccc(Cl)cc2Cl)o1 returned KCNQ2 inh inactive and KCNQ2 inh baseline 0.55.
CCSc1ccccc1C(=O)Nc1ccc([N+](=O)[O-])cc1OC was read as KCNQ2 inh inactive and KCNQ2 inh baseline 2.8.
CC(=O)Nc1nonc1NC(=O)CSc1ccccn1 was read as KCNQ2 inh inactive and KCNQ2 inh baseline -0.15.
Screening Cc1cc(C)c2[nH]c(=O)c(CN(CC3CCCO3)C(=S)NCc3ccco3)cc2c1 (stereo not given) returned KCNQ2 inh inactive and KCNQ2 inh baseline -0.27.
Cc1ccc(S(=O)(=O)NCCc2ccccc2)cc1 was read as KCNQ2 inh inactive and KCNQ2 inh baseline -0.76.
Screening Cc1cc(-c2nn(-c3ccccc3F)cc2CN2CCN(c3ccncc3)CC2)c(C)s1 returned KCNQ2 inh inactive and KCNQ2 inh baseline 1.2.
For Cc1ccccc1C(=O)NNC(=O)Nc1ccccc1 the results were KCNQ2 inh inactive and KCNQ2 inh baseline -0.63.
COC(=O)C1=NN(N=O)C2(CC(=O)N(c3cc(C)cc(C)c3)C2=O)C1 (stereo not given) was read as KCNQ2 inh inactive and KCNQ2 inh baseline -0.22.
For O=S(=O)(NCc1ccccn1)c1cc(Cl)ccc1Cl the results were KCNQ2 inh inactive and KCNQ2 inh baseline -0.38.
For CN(C)CCNC(=O)c1onc(CSc2ccc(F)c(F)c2)c1C(=O)NCCN(C)C the results were KCNQ2 inh inactive and KCNQ2 inh baseline 0.73.

The final 2 compounds of the section above lead into the next:
For O=S(=O)(NCc1ccccn1)c1cc(Cl)ccc1Cl the results were KCNQ2 inh inactive and KCNQ2 inh baseline -0.38.
For CN(C)CCNC(=O)c1onc(CSc2ccc(F)c(F)c2)c1C(=O)NCCN(C)C the results were KCNQ2 inh inactive and KCNQ2 inh baseline 0.73.
OCc1ncccc1O was read as KCNQ2 inh inactive and KCNQ2 inh baseline 0.36.
`Cc1ccc(S(=O)(=O)/N=C2\CN(C)C(=O)N2C)cc1` gave KCNQ2 inh inactive and KCNQ2 inh baseline -0.53.
O=C(NCCOc1ccccc1)C(=O)NCC1CCCO1 (stereo not given) was read as KCNQ2 inh inactive and KCNQ2 inh baseline 0.2.
`CC(c1ccccc1)n1cc(C(=O)NCc2cccnc2)nn1` (stereo not given) gave KCNQ2 inh inactive and KCNQ2 inh baseline -1.1.
CCOC(=O)c1cc(CC)sc1NC(=O)CC1SC(N)=NC1=O (stereo not given) was read as KCNQ2 inh inactive and KCNQ2 inh baseline -1.4.
For COc1ccc(NC(=O)Nc2c(SC)nsc2SC)cc1 the results were KCNQ2 inh inactive and KCNQ2 inh baseline 3.4.
CN(C)C(=O)c1ccccc1NC(=O)Cc1cccc2ccccc12 was read as KCNQ2 inh inactive and KCNQ2 inh baseline 0.18.
For CCCCNC(=O)CN1C(=O)NC2(CCOc3ccccc32)C1=O (stereo not given) the results were KCNQ2 inh inactive and KCNQ2 inh baseline -0.13.
`CCN(C(=O)COC(=O)C1CCN(S(=O)(=O)c2c(Cl)cccc2Cl)CC1)C1CCCCC1` gave KCNQ2 inh inactive and KCNQ2 inh baseline -1.
Screening CCSc1nc2ccccc2c(=O)n1CCc1ccc(OC)c(OC)c1 returned KCNQ2 inh inactive and KCNQ2 inh baseline 0.06.
Screening Cc1cc(C)c(S(=O)(=O)c2ccccc2F)c(=O)[nH]1 returned KCNQ2 inh inactive and KCNQ2 inh baseline -2.
For CCc1ccc(OCCn2ccnc2)cc1 the results were KCNQ2 inh inactive and KCNQ2 inh baseline 2.4.
Screening CC1CCN(Cc2nc(Cl)c3c4c(sc3n2)CCC4)CC1 returned KCNQ2 inh inactive and KCNQ2 inh baseline 0.26.
Screening Cc1c(NS(=O)(=O)c2ccc(N=NN(C)C)cc2)c(=O)n(-c2ccccc2)n1C returned KCNQ2 inh inactive and KCNQ2 inh baseline -1.5.
For COc1cccc(CN2CCN(Cc3[nH]c4ccccc4c3C)CC2CCO)c1 (stereo not given) the results were KCNQ2 inh inactive and KCNQ2 inh baseline -0.03.

Looked up one by one from the list above (4):
Screening Cc1c(NS(=O)(=O)c2ccc(N=NN(C)C)cc2)c(=O)n(-c2ccccc2)n1C returned KCNQ2 inh inactive and KCNQ2 inh baseline -1.5.
CN(C)C(=O)c1ccccc1NC(=O)Cc1cccc2ccccc12 was read as KCNQ2 inh inactive and KCNQ2 inh baseline 0.18.
For CCc1ccc(OCCn2ccnc2)cc1 the results were KCNQ2 inh inactive and KCNQ2 inh baseline 2.4.
Screening CCSc1nc2ccccc2c(=O)n1CCc1ccc(OC)c(OC)c1 returned KCNQ2 inh inactive and KCNQ2 inh baseline 0.06.

Returning to the listing, starting 6 compounds before the break.
Screening CCSc1nc2ccccc2c(=O)n1CCc1ccc(OC)c(OC)c1 returned KCNQ2 inh inactive and KCNQ2 inh baseline 0.06.
Screening Cc1cc(C)c(S(=O)(=O)c2ccccc2F)c(=O)[nH]1 returned KCNQ2 inh inactive and KCNQ2 inh baseline -2.
For CCc1ccc(OCCn2ccnc2)cc1 the results were KCNQ2 inh inactive and KCNQ2 inh baseline 2.4.
Screening CC1CCN(Cc2nc(Cl)c3c4c(sc3n2)CCC4)CC1 returned KCNQ2 inh inactive and KCNQ2 inh baseline 0.26.
Screening Cc1c(NS(=O)(=O)c2ccc(N=NN(C)C)cc2)c(=O)n(-c2ccccc2)n1C returned KCNQ2 inh inactive and KCNQ2 inh baseline -1.5.
For COc1cccc(CN2CCN(Cc3[nH]c4ccccc4c3C)CC2CCO)c1 (stereo not given) the results were KCNQ2 inh inactive and KCNQ2 inh baseline -0.03.
NC(=O)COC(=O)CC12CC3CC(CC(Br)(C3)C1)C2 was read as KCNQ2 inh inactive and KCNQ2 inh baseline 0.28.
For O=C(CNc1cccc2ccccc12)N/N=C/c1ccc(OC(=O)/C=C/c2ccco2)cc1 the results were KCNQ2 inh inactive and KCNQ2 inh baseline 0.62.
For CN(C)C(=O)CCc1nc2sc3c(c2c(=O)[nH]1)CCCC3 the results were KCNQ2 inh inactive and KCNQ2 inh baseline 6.3.
For CCC(C)N(C(=O)CCC(=O)Nc1cc(C)on1)C(C(=O)NC(C)(C)C)c1ccccc1Cl (stereo not given) the results were KCNQ2 inh inactive and KCNQ2 inh baseline 0.01.
For CCN(C(=O)CN(C)Cc1c(F)cccc1Cl)c1c(N)n(Cc2ccccc2)c(=O)[nH]c1=O the results were KCNQ2 inh inactive and KCNQ2 inh baseline 1.3.
For Cc1ccc(C)c(S(=O)(=O)NCc2ccc(C(=O)N3CCCCC3C)cc2)c1 (stereo not given) the results were KCNQ2 inh inactive and KCNQ2 inh baseline 0.55.
`O=C(O)C1CC=CCC1C(=O)Nc1ccc2c(c1)CCC2` (stereo not given) gave KCNQ2 inh inactive and KCNQ2 inh baseline 2.5.
CCOc1ccc(N(CC(=O)NC2CCCC2)S(=O)(=O)c2ccccc2)cc1 was read as KCNQ2 inh inactive and KCNQ2 inh baseline 1.7.
Screening Cc1cccc(NC(=S)N/N=C/C(C)c2ccccc2)c1C (stereo not given) returned KCNQ2 inh inactive and KCNQ2 inh baseline 3.4.
Cc1ccc(-c2ccc(S(=O)(=O)N3CCCC3)cc2)cc1 was read as KCNQ2 inh inactive and KCNQ2 inh baseline -0.28.
CC(C)(C)C(=O)Nc1nnc(SCC(=O)NC2CC2)s1 was read as KCNQ2 inh inactive and KCNQ2 inh baseline -0.09.
Screening COc1cc2c(cc1OC)C(c1cc([N+](=O)[O-])ccc1O)NCC2 (stereo not given) returned KCNQ2 inh inactive and KCNQ2 inh baseline 0.86.
`CN(C)Cc1c(C(=O)N/N=C/c2ccncc2)nnn1-c1nonc1N` gave KCNQ2 inh inactive and KCNQ2 inh baseline -0.07.
Screening CC(=O)Nc1ccc(S(=O)(=O)NCC2CCC(C(=O)N3CC(C)CC(C)C3)CC2)cc1 (stereo not given) returned KCNQ2 inh inactive and KCNQ2 inh baseline 0.12.
`COc1ccc(C2C(C#N)=C(N)SC(N)=C2C#N)cc1OC` gave KCNQ2 inh inactive and KCNQ2 inh baseline 1.7.
Cc1nc(SCC(=O)OCc2ccccc2)c(C#N)c(-c2ccccc2)c1C(=O)Nc1ccccc1 was read as KCNQ2 inh inactive and KCNQ2 inh baseline 4.
`Cc1ccccc1NC(=O)COC(=O)c1cc(=O)c2ccccc2o1` gave KCNQ2 inh inactive and KCNQ2 inh baseline -0.08.
For CCCCc1c(O)nc(SCC(=O)N2CCOCC2)n(-c2ccccc2C)c1=O the results were KCNQ2 inh inactive and KCNQ2 inh baseline 1.
For Cc1cc(C(C)(C)C)c(O)c(C)c1CC1=NCCN1 the results were KCNQ2 inh inactive and KCNQ2 inh baseline 0.01.
For O=c1oc2ccccc2c2c1C(O)CO2 (stereo not given) the results were KCNQ2 inh inactive and KCNQ2 inh baseline 0.25.
Screening CN1CCN(C(=O)CCN2C(=O)c3ccccc3S2(=O)=O)CC1 returned KCNQ2 inh inactive and KCNQ2 inh baseline 0.78.
For CC(C)CN(Cc1cc(=O)oc2cc(-c3ccccc3)c(O)cc12)CC(C)C the results were KCNQ2 inh -7.5* and KCNQ2 inh baseline -0.17*.
`CCOCCn1cnc2sc(C(=O)NCCCN3CCOCC3)c(C)c2c1=O` gave KCNQ2 inh inactive and KCNQ2 inh baseline 0.78.
Screening CCOC(=O)C1=C(O)/C(=C/c2cccc(OC)c2O)N=C1C returned KCNQ2 inh inactive and KCNQ2 inh baseline -1.7.
`O=c1[nH]cc(N=Cc2cc([N+](=O)[O-])ccc2O)c(=O)[nH]1` gave KCNQ2 inh inactive and KCNQ2 inh baseline -0.35.
For O=C(NNC(=O)c1ccccc1O)c1ccc(S(=O)(=O)Nc2ccccc2F)cc1 the results were KCNQ2 inh inactive and KCNQ2 inh baseline 0.82.
`Cc1cc(NC(=O)Nc2ccc(F)cc2)no1` gave KCNQ2 inh inactive and KCNQ2 inh baseline -0.41.
CCOC(=O)N1CCN(C(=O)Cn2cc3c(n2)CCCC3)CC1 was read as KCNQ2 inh inactive and KCNQ2 inh baseline 1.7.
Screening CCOc1ccc(C(=O)NCCCN2CCOCC2)cc1OCC returned KCNQ2 inh inactive and KCNQ2 inh baseline 0.75.
`COc1ccc(-c2nnn(Cc3ccccc3)n2)cc1` gave KCNQ2 inh inactive and KCNQ2 inh baseline 2.2.
For CCCCc1ccc(NC(=O)N2CCN(c3cc(C)nc4ccccc34)CC2)c(C)c1 the results were KCNQ2 inh inactive and KCNQ2 inh baseline 1.6.
CCc1ccc(C(=O)COC(=O)c2cccnc2Cl)cc1 was read as KCNQ2 inh inactive and KCNQ2 inh baseline -0.23.
Screening COCCCN1C(=O)c2ccc(C(=O)O)cc2C1=O returned KCNQ2 inh inactive and KCNQ2 inh baseline 3.4.
Screening CC(C)Nc1oc(Cc2cccc3ccccc23)nc1C#N returned KCNQ2 inh inactive and KCNQ2 inh baseline 0.21.
O=C(c1ccc(COc2ccccc2Cl)o1)N1CCCC1 was read as KCNQ2 inh inactive and KCNQ2 inh baseline 1.1.
COC(C(=O)NC(C(C)C)C(C)C)c1ccccc1 (stereo not given) was read as KCNQ2 inh inactive and KCNQ2 inh baseline -0.11.
CCCCN1CN(Cc2ccco2)CNC1=S was read as KCNQ2 inh inactive and KCNQ2 inh baseline 1.4.
`CC(=O)Nc1ccc(NC(=O)Cn2cc3c(n2)CCC(C)C3)cc1` (stereo not given) gave KCNQ2 inh inactive and KCNQ2 inh baseline 0.27.
Screening CC(=O)N1CCc2cc(S(=O)(=O)NC(C(=O)Nc3ccc4c(c3)OCCO4)C(C)C)ccc21 (stereo not given) returned KCNQ2 inh inactive and KCNQ2 inh baseline 2.2.
COc1ccc(OC)c(/C=N/NC(=O)c2cc(-c3ccc(C)o3)nc3ccccc23)c1 was read as KCNQ2 inh inactive and KCNQ2 inh baseline -0.71.
COC(=O)c1cc(S(=O)(=O)N2CCC(c3ccccc3)C2)c[nH]1 (stereo not given) was read as KCNQ2 inh inactive and KCNQ2 inh baseline 0.1.
For c1csc(-c2cn3c(n2)SCC3)c1 the results were KCNQ2 inh inactive and KCNQ2 inh baseline 0.74.
Cc1cc(C)cc(N(CC(=O)NC2CCCC2)C(=O)CCC(=O)Nc2nc(C)cs2)c1 was read as KCNQ2 inh inactive and KCNQ2 inh baseline -2.3.
For COc1ccccc1NS(=O)(=O)c1cccc(C(=O)NCc2ccccn2)c1 the results were KCNQ2 inh inactive and KCNQ2 inh baseline -0.04.
For CCCCOc1ccc(S(=O)(=O)NNC(=O)c2cc3ccccc3o2)cc1 the results were KCNQ2 inh inactive and KCNQ2 inh baseline 0.63.
`Cc1ccc(C(=O)N2CCC3(CC2)Oc2ccc(Cl)cc2C(=O)C32CC(c3cccnc3)=NO2)s1` (stereo not given) gave KCNQ2 inh inactive and KCNQ2 inh baseline -0.44.
CCN(CC)C(=O)COC(=O)c1cc(-c2ccco2)nc2ccccc12 was read as KCNQ2 inh inactive and KCNQ2 inh baseline -0.03.
`C=CCn1c(SCC(=O)Nc2sccc2C(N)=O)nc2ccc(Cl)cc2c1=O` gave KCNQ2 inh inactive and KCNQ2 inh baseline 1.4.
For Cc1cccc(-c2noc(-c3cc4ccccc4oc3=O)n2)c1 the results were KCNQ2 inh inactive and KCNQ2 inh baseline 0.01.
For COC(=O)COc1nsnc1N1CCOCC1 the results were KCNQ2 inh inactive and KCNQ2 inh baseline -0.96.

Source: PubChem (Johns Hopkins Ion Channel Center)
